# Bioassay records deposited in PubChem by several laboratories.
# FGF22 binding = binders of human FGF22 protein, primary screen, FGF22 synaptogenesis inhibitor project, biophysical, thermal shift, single point | recombinant FGF22 thermal shift, SYPRO orange fluorescence; percent of sucrose octasulfate shift, DMSO zero | calls only at 9.99 µM | Fibroblast growth factor 22 (Homo sapiens), Q9HCT0 | actives 1.5% (n = 340,000);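 active means melting point raised past a set limit in the mean and every replicate; three in four hits are not shown here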
# UCH37 DUB inh = inhibitors of human UCH37 deubiquitinase, primary screen, biochemical, Ub-AMC cleavage, fluorescence; Ubiquitin carboxyl-terminal hydrolase isozyme L5 (Homo sapiens), Q9Y5K5; purified proteasome/UCH37; inhibition, % (no concentration beside the values); actives 0.33% (n = 330,000); AID 588478, 2011;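 active means mean of two replicates above 20%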;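 further: 0% = compound-free wells with enzyme and 100% = wells lacking proteasome; stock transfer was 100 nL into about 20 µL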
#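 Material: Human UCH37 enzyme supplied as purified proteasome complex | Schedule: 30 min preincubation with enzyme, 25 min cleavage at room temperature | Detection: AMC fluorescence 355/460 nm | Measure: % inhibition of Ub-AMC cleavage fluorescence | Controls: Wells without proteasome as full block, compound-free enzyme plus substrate as uninhibited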
# E coli growth = E. coli growth inhibition, primary screen, OD600; actives 0.21% (n = 330,000); Escherichia coli growth, 23 h; stronger effect = lower value; AID 1053175, 2014; OD600 absorbance (test concentration not listed);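 active means OD600 absorbance below the run mean of sample wells minus 3.6 SD, in any replicate, cut at about 0.56 in these data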;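 further: stock transfer was 300 nL into about 60 µL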
# B2AR ag = beta2AR agonists driving receptor internalization, primary screen, cell-based, FAP fluorogen, flow cytometry | Am2.2-beta2AR cells; reference of the scale not given here | response, % (test concentration not listed) | actives 0.43% (n = 340,000);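 active means response above a set limit, near 3 SD of response in nonfluorescent compounds, cut at about 42% in these data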;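 further: stock transfer was 100 nL into about 11 µL; a reference agonist was the positive control; negative values mostly stem from fluorescent compounds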
# HNF4A DNA FP = change in binding of human HNF4A to DNA, primary screen, biochemical, fluorescence polarization, FITC-DNA; Hepatocyte nuclear factor 4-alpha (Homo sapiens), P41235; 1 h; activity change, % at 10 µM; actives 0.3% (n = 360,000); AID 1224865, 2016; in the data active means activity change above about 30%, passing the limit was not always enough;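 further: controls were the assay level and a saturating level of protein; the project sought stronger binding though the title names inhibitors; some compounds called inactive have numbers as strong as hits; positive values seem to mean higher polarization but the record does not say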
# LANA-H2B inh = blockers of LANA interaction with H2A/H2B – biochemical, FP readout, HTS, primary screen; Protein LANA1 (Human herpesvirus 8 type P (isolate GK18)), Q9QR71; cell-free LANA-H2A/H2B peptide, fluorescence polarization; inhibition, % (no concentration beside the values); actives 0.6% (n = 320,000); in the data active means inhibition mostly above about 10%, no sharp cut-off; inactive means mostly below about 6.7%;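 further: stock transfer was 7.5 nL into about 10 µL; 0% = median of vehicle wells and 100% = median of positive control wells; one replicate is shown; the record names a cut of 25% in any replicate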
# Target sequence (Q9QR71 whole entry, looked up): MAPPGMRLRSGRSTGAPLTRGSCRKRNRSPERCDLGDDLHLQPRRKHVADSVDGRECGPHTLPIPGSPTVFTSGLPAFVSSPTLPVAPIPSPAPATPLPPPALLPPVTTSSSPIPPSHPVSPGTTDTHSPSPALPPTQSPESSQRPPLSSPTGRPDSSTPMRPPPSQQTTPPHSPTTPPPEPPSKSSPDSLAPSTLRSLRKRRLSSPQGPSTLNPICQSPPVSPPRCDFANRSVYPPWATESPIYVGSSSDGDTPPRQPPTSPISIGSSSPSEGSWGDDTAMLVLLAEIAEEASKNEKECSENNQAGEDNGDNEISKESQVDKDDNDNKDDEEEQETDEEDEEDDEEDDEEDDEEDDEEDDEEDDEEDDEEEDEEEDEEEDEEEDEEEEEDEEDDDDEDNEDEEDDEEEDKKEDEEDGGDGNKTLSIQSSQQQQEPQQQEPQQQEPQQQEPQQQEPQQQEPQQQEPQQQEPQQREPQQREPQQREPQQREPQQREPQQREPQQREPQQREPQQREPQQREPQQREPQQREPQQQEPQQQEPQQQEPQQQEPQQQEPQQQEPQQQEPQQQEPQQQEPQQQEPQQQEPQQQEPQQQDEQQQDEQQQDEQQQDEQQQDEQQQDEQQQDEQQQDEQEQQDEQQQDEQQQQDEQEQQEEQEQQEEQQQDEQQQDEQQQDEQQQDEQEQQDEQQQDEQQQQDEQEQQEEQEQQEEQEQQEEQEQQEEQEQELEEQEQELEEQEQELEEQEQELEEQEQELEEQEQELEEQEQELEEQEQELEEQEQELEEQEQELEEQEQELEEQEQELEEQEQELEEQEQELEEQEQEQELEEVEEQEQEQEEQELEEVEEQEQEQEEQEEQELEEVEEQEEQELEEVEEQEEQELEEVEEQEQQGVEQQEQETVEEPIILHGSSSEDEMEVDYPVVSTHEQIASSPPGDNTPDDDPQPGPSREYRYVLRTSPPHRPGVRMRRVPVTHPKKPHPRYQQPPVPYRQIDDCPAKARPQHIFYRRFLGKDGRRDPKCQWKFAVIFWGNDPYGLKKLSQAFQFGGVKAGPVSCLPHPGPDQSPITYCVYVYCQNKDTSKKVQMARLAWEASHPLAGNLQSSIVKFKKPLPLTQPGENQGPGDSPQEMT
# ALR H2O2 inh = inhibitors of human ALR sulfhydryl oxidase, primary screen, biochemical, H2O2 detection, HRP-luminol luminescence, single point | FAD-linked sulfhydryl oxidase ALR (Homo sapiens), P55789 | purified ALR, DTT oxidation | actives 3.8% (n = 290,000) | inhibition, % (concentration not given with the values);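 active means mean and each replicate at 75% or more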;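 further: stock transfer was 7.5 nL into about 7.5 µL; 0% = neutral wells and 100% = wells with inactivated enzyme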
# Numbers without * were called inactive; i = inactive; / = no result given.
SMILES,FGF22 binding,UCH37 DUB inh,E coli growth,B2AR ag,HNF4A DNA FP,LANA-H2B inh,ALR H2O2 inh
Cc1c(C(=O)Nc2nnc(SCc3ccccc3Cl)s2)cccc1[N+](=O)[O-],i,0.1,0.7,-1,0.3,5.8,-16
Cc1c(-c2ccc(OCc3ccccc3)cc2)nc2ccccc2c1C(=O)O,i,-7.0,0.69,4,-1.0,-0.6,-3
Cc1ccc(S(=O)(=O)NC(=O)COc2cc(C)ccc2C(C)C)cc1,i,4.6,0.69,6,5.8,2.7,25
CC1CCCC(NC(=O)CCC(=O)NCc2ccccc2)C1C (stereo unspecified),i,1.3,0.7,-7,5.9,3.4,1
O=C(COC(=O)c1n[nH]c(=O)c2ccccc12)NC1CCCCC1,i,3.2,0.68,-3,-2.3,-8.3,-3
CCN(c1ccccc1)S(=O)(=O)c1ccc(Cl)c(NC(=O)COC(=O)c2ccc[n+]([O-])c2)c1,i,2.0,0.69,2,4.2,-2.0,/
CCOC(=O)C1CCCN(c2c(NCCCN(CC)c3cccc(C)c3)c(=O)c2=O)C1 (stereo unspecified),/,1.9,0.78,6,0.5,-5.2,98*
CCC(CC)C(=O)Nc1ccc(Cl)c(Cl)c1,/,2.2,0.73,-6,-0.7,-4.6,-12
CC1CN(S(=O)(=O)c2cc(C(=O)N3CCCCC3C)ccc2Cl)CC(C)O1 (stereo unspecified),i,2.9,0.67,-7,0.9,-1.3,-8
Cc1nnc(NC(=O)CSc2cn(CCNC(=O)c3ccccc3)c3ccccc23)s1,i,2.9,0.81,8,-0.7,-3.7,72
Cc1ccc(-c2cc(C(=O)N/N=C/c3ccc(Cl)cc3)n[nH]2)o1,i,/,/,-5,0.0,-2.9,13
CCCc1cc(=O)n2[nH]cnc2n1,/,0.5,0.63,14,1.9,3.8,-7
CC(=O)NC(CC(=O)OCC(=O)N1CCN(S(=O)(=O)c2ccc(C)cc2C)CC1)c1ccccc1 (stereo unspecified),i,0.6,0.62,0,-0.3,2.1,4
CCn1c(SC(C)C(=O)Nc2nccs2)nnc1-c1ccncc1 (stereo unspecified),i,0.4,0.7,4,0.5,1.6,1
CCOc1ccc(C(=O)N[C@H](C(=O)NNC(=O)c2cccs2)C(C)C)cc1,i,4.2,0.72,-7,-2.2,4.3,-16
COc1ccc(-c2ccc(OC)c([C@H]3[C@H]4C=CC[C@@H](C)[C@@H]4C(=O)N3Cc3ccccc3)c2)cc1,i,1.3,/,15,1.7,4.1,/
O=C(CSc1nc(COc2ccccc2)nc2ccccc12)NC1CCCC1,/,4.4,0.76,5,1.3,-3.1,0
COc1ccc(NC(=O)Cn2cnc3sc(C)c(S(=O)(=O)N4CCOCC4)c3c2=O)c(OC)c1,i,6.6,0.66,7,-2.3,-7.2,-13
COCCn1c(SCC(=O)Nc2cccc(F)c2)nc2c(c1=O)SCC2,i,3.5,0.72,-6,2.8,-5.8,99*
COc1ccc(CCC(=O)NC(C)C)cc1,i,6.1,0.68,-47,-0.2,-2.7,-4
COc1ccc(S(=O)(=O)NC2CC2)cc1Br,i,1.1,0.68,6,2.3,-1.9,-3
Nc1ccccc1C(=O)NNC1=C(C(=O)C(F)(F)F)CCC1,i,-9.9,0.59,6,2.4,-0.2,47
COC(=O)C1=C(C)N=C2SC(C)C(=O)N2C1/C=C/c1ccccc1 (stereo unspecified),/,5.2,0.68,-8,-2.0,-1.3,/
CCNC(=O)COC(=O)c1cc(S(=O)(=O)N2CCCCC2)ccc1C,i,0.8,0.74,6,-1.9,-0.5,-14
O=C(Nc1n[nH]c(=S)s1)c1ccc2ccccc2c1,i,7.9,0.63,10,-4.5,-1.1,98*
NC(=O)C1(Nc2ccc([N+](=O)[O-])cc2)CCCC1,i,12,0.66,-3,-1.8,/,/
CCN1CCN(C(=O)C(C)Nc2ccc(OC)cc2OC)CC1 (stereo unspecified),i,/,/,15,11,-2.9,38
O=C(NCCO)C(=O)NCC1OCCCN1S(=O)(=O)c1cc(F)ccc1F (stereo unspecified),i,3.7,0.71,2,-0.1,0.3,-2
O=[N+]([O-])c1ccc(Cl)c(-c2ccc(/C=N/n3cnnc3)o2)c1,i,/,/,5,-2.4,2.4,-25
CCOCCCn1c(=S)[nH]c2cc(C(=O)N3CCN(C)CC3)ccc2c1=O,/,2.0,0.63,-9,4.2,2.2,56
O=C(COc1ccc(F)cc1)NCCNC(=O)COc1ccc(F)cc1,i,0.1,0.7,-3,0.0,-6.2,-3
COC(=O)c1scc(C)c1-n1ccc(C(=O)C(=O)N(C)C)c1,i,1.2,0.67,-2,2.1,2.2,-5
COc1ccc(/C(C)=N/Nc2nc3ccccc3nc2C)cc1OC,i,/,/,-8,0.5,3.8,64
CN(C)C(=O)CSc1nnc(Cc2ccc3c(c2)OCO3)o1,i,-0.4,0.66,6,-0.1,6.8,-4
COc1cc(C(=O)NCc2nnc(SCC(=O)N3CCOCC3)o2)cc(OC)c1OC,i,0.8,0.66,8,-0.7,-1.6,-1
COc1ccc(S(=O)(=O)N2CCOCC2)cc1NC(=O)C1COc2ccccc2O1 (stereo unspecified),i,0.9,0.65,5,-3.2,1.4,-19
CCC(=O)OCC(=O)Nc1cc(S(=O)(=O)N(C)C)ccc1Cl,i,1.6,0.69,-2,-1.6,/,/
CN1CC(=O)NC1=NC(=O)c1cc(F)c(F)cc1Cl,/,0.1,0.73,3,-2.1,2.4,0
CCCCCCC(NC(=O)Cc1ccc2ccccc2c1)C(=O)O (stereo unspecified),i,0.1,0.69,6,1.3,/,/
Cc1ccc2nc(-c3ccsc3)c(NC3CCCC3)n2c1,i,-175,0.7,-3,0.3,-1.2,63
Cc1ccc(S(=O)(=O)N2CCC3(CC2)OCCO3)c(C)c1,i,0.4,0.65,-4,-0.6,-1.1,3
CCN(CC)S(=O)(=O)c1ccc(-c2nnc(SCC(=O)c3ccc(OC)cc3)o2)cc1,/,3.1,0.71,3,-3.0,4.1,-17
COc1ccc(-c2cc(C(=O)N3CCc4ccccc4C3)no2)cc1OC,/,2.6,0.65,1,-0.3,-8.8,2
O=C(CSc1nnc(-c2ccco2)n1CC1CCCO1)c1ccccc1 (stereo unspecified),/,0.8,0.7,-12,-0.5,-1.6,27
COC(=O)c1ccccc1S(=O)(=O)NNC(=O)c1ccccc1-n1cccc1,i,0.1,0.7,2,-1.9,-2.6,4
CCOC(=O)C1CCN(C(=O)Nc2ccc3nc(C)c(C)nc3c2)CC1,/,-179,0.71,-2,3.0,-0.9,-31
COc1ccc2nc(NC(=O)Cc3cccs3)sc2c1,/,0.9,0.65,3,2.4,-0.1,-2
CCc1ccc(N2C(=O)C(Cl)=C(Nc3ccc(C(=O)N4CCCC4)cc3)C2=O)cc1,/,5.1,0.68,3,0.5,-0.3,18
CCc1cc(=O)oc2cc(OCC(=O)NCc3ccccn3)ccc12,i,-23,0.67,3,0.3,8.7,0
COc1ccc(C2C(C#N)=C(C)NC3=C2S(=O)(=O)c2ccccc23)cc1 (stereo unspecified),/,-11,0.72,-9,-3.5,0.0,-14
O=C(c1ccco1)c1cn(CC(=O)N2CCCC2)c2ccccc12,i,1.2,0.71,4,4.2,4.9,-4
Cc1cc(=O)n2[nH]c(-c3ccco3)nc2n1,/,1.3,0.66,10,-4.5,-3.8,-20
O=C(Nc1ccc(S(=O)(=O)N2CCOCC2)cc1)c1cccc(Br)c1,i,3.9,0.66,0,-1.4,3.8,-19
CC(OC(=O)C1CC=CCC1C(N)=O)C(Cl)=C(Cl)Cl (stereo unspecified),/,0.7,0.67,-2,-1.3,-4.2,8
CSc1ncccc1-c1nc2ccccc2[nH]1,/,-4.7,0.65,-23,-1.1,-2.6,/
COc1cc(CC(NC(C)=O)C(=O)NC2CCN(C(=O)Nc3ccccc3C)CC2)cc(OC)c1 (stereo unspecified),i,/,/,0,-3.9,6.0,/
COc1ccc(N(CC(=O)N2CCN(c3ccc(Cl)cc3)CC2)S(=O)(=O)c2c(C)n[nH]c2C)cc1,i,3.6,0.66,3,0.8,2.2,-2
COCCNC(=S)N(CCc1c(C)[nH]c2ccc(F)cc12)Cc1cccnc1,i,0.3,0.63,-6,0.6,4.4,37
Cc1onc(-c2ccccc2)c1C(=O)Nc1sccc1C#N,i,4.5,0.69,5,44*,-1.9,/
COc1ccccc1C(=O)NCCC(=O)Nc1ccc(S(=O)(=O)N2CCC(C)CC2)cc1,i,0.7,0.69,-2,1.4,i,0

# Brought forward from above: 4 entries; new compounds follow.
SMILES,FGF22 binding,UCH37 DUB inh,E coli growth,B2AR ag,HNF4A DNA FP,LANA-H2B inh,ALR H2O2 inh
COc1ccc(N(CC(=O)N2CCN(c3ccc(Cl)cc3)CC2)S(=O)(=O)c2c(C)n[nH]c2C)cc1,i,3.6,0.66,3,0.8,2.2,-2
COCCNC(=S)N(CCc1c(C)[nH]c2ccc(F)cc12)Cc1cccnc1,i,0.3,0.63,-6,0.6,4.4,37
Cc1onc(-c2ccccc2)c1C(=O)Nc1sccc1C#N,i,4.5,0.69,5,44*,-1.9,/
COc1ccccc1C(=O)NCCC(=O)Nc1ccc(S(=O)(=O)N2CCC(C)CC2)cc1,i,0.7,0.69,-2,1.4,i,0
O=C1Nc2cccnc2Sc2ccccc21,/,5.1,0.68,-1,-1.7,-2.7,-11
c1ccc(Cn2nnc3c(N4CCCCCC4)ncnc32)cc1,i,1.6,0.74,-16,0.3,-5.1,-12
COc1ccc(NC(=O)C2CC(=O)N(c3cccc(C)c3C)C2)cc1 (stereo unspecified),/,1.8,0.69,5,-1.7,1.2,-20
COc1ccc(-c2ccc(=O)n(CC(=O)NCC3COCCO3)n2)cc1 (stereo unspecified),i,-5.0,0.69,0,-1.3,1.0,-11
CCN(C(=O)C=Cc1ccco1)c1ccccc1,i,1.7,0.65,4,9.2,/,/
CC(C)(C)c1ccc(/C=N/NC(=O)C[n+]2ccccc2)cc1,i,/,/,0,2.2,0.4,3
N=c1c2c3c(sc2ncn1CCN1CCOCC1)CCCCC3,/,0.6,0.67,-24,7.3,0.5,0
O=C(CN1CCN(S(=O)(=O)c2ccc(Cl)cc2)CC1)Nc1ccc(N2CCOCC2)cc1,i,6.3,0.68,-4,2.6,4.4,-3
O=C(Cn1ncc2c(=O)oc3ccccc3c21)N1CCCN(Cc2ccccc2F)C1,i,0.0,0.8,-4,1.7,0.8,3
CCOC(=O)N1CCC(NS(=O)(=O)c2ccc(C)cc2)CC1,i,1.2,0.72,3,-1.1,-6.4,-9
O=C(COC(=O)Cc1n[nH]c(=O)c2ccccc12)NNC(=O)c1ccc(Cl)cc1,i,4.6,0.64,1,3.4,5.3,-2
Cc1nn(C2CCS(=O)(=O)C2)c(C)c1CN(C)C(=O)c1ccccc1 (stereo unspecified),i,2.5,0.7,7,5.9,3.0,-3

# ALR H2O2 inh: entries above that show a hit
SMILES | UCH37 DUB inh | B2AR ag | LANA-H2B inh | ALR H2O2 inh
CCOC(=O)C1CCCN(c2c(NCCCN(CC)c3cccc(C)c3)c(=O)c2=O)C1 (stereo unspecified) | 1.9 | 6 | -5.2 | 98*
COCCn1c(SCC(=O)Nc2cccc(F)c2)nc2c(c1=O)SCC2 | 3.5 | -6 | -5.8 | 99*
O=C(Nc1n[nH]c(=S)s1)c1ccc2ccccc2c1 | 7.9 | 10 | -1.1 | 98*

# An excerpt; the hit share may differ from the screen's.
